High-throughput results from PubChem.
FGF22 binding = binders of recombinant human FGF22 by thermal shift | actives 1.5% (n = 340,000) | AID 651658 | Q9HCT0 | calls only at 9.99 µM | SYPRO orange fluorescence; percent of sucrose octasulfate shift, DMSO zero;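 active = melting point raised past a set limit in the mean and every replicate; inconclusive = no clear call; three in four hits are not shown here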
Target sequence (Q9HCT0 whole entry, looked up): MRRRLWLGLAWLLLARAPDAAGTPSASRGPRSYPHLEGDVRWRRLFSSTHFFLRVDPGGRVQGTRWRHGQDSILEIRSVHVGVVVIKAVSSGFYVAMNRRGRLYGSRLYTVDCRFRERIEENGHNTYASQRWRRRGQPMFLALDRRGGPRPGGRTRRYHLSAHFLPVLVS
AF4-AF9 inh = inhibitors of human MLL-AF4/AF9 interaction. P42568. AlphaScreen, biotin-AF4 peptide binding to FLAG-AF9. inhibition, % at 10 µM. actives 0.47% (n = 350,000);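 active = every replicate reaching a set inhibition limit, whatever the replicate mean, cut at about 25% in these data; inconclusive = mean inhibition reaches that limit but some replicates miss it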;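 note: 0% = plate neutral control median and 100% = total signal loss; the record names both 10 and 1 µM as test concentration; the first replicate is given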
Target sequence (P42568 whole entry, looked up): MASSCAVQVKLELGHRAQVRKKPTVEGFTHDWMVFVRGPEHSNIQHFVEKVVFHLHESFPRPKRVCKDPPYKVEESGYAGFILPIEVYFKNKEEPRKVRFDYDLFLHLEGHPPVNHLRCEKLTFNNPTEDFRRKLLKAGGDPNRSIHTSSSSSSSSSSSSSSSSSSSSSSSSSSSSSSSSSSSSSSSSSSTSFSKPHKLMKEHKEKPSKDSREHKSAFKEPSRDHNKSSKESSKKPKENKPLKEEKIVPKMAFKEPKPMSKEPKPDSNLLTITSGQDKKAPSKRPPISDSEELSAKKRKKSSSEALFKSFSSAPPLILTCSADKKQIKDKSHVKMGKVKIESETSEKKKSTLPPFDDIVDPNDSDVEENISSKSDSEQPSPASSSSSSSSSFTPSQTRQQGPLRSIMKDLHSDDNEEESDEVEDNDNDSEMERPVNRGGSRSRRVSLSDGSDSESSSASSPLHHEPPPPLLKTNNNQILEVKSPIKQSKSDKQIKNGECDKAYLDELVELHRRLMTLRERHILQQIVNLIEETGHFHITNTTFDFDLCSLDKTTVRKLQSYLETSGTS
Vif A3G = HIV-1 Vif–A3G interaction blockers – biochemical, TR-FRET, GST-Vif 1-94, biotin-A3G peptide, dose response retest, primary screen (AID 1117319); inhibition, %, or IC50 in µM where a hit was titrated; TR-FRET GST-Vif / biotin-A3G peptide binding; higher % means a stronger effect; test concentration not given here; strong numbers were not always called active; actives 0.57% (n = 260,000);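 active = above the screen mean plus three standard deviations and confirmed in dose response; inconclusive = results disagree or hit not tested in dose response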;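 note: Vif residues 1-94 fused to GST binding biotinylated APOBEC3G peptide 110-148; 0% = full assay without inhibitor and 100% = GST in place of GST-Vif; retest series ran down from 100 µM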
HNF4A DNA FP = change in binding of human HNF4 alpha to DNA | P41235 | HNF4a-FITC DNA binding, fluorescence polarization, 1 h | actives 0.3% (n = 360,000) | activity change, % at 10 µM; in the data active = activity change above about 30%, passing the limit was not always enough;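 note: controls were the assay level and a saturating level of protein; the project sought stronger binding though the title names inhibitors; some compounds called inactive have numbers as strong as hits; positive values seem to mean higher polarization but the record does not say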
rRNA inh HTS = inhibitors of bacterial rRNA selective over humanized ribosomes; AID 720706; GFP signal change (wild-type ribosome), % (no concentration beside the values); actives 1.6% (n = 350,000); E. coli WT GFP vs humanized-ribosome RFP mutants, fluorescence, 24 h; stronger effect = lower value; DMSO median 0, no signal -100;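 active = significant combined selectivity score with lowered wild-type GFP, culture density cut under 30%, mutant RFP and density less affected; inactive = any of these conditions unmet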; note: one replicate is shown; some compounds called inactive have numbers as strong as hits
ALR H2O2 inh = inhibitors of human sulfhydryl oxidase ALR; purified ALR, DTT oxidation, H2O2 HRP-luminol luminescence; inhibition, % (no concentration beside the values); actives 3.8% (n = 290,000); AID 485317;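 active = mean and each replicate at 75% or more; inconclusive = only one of the two met; inactive = neither met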;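 note: stock transfer was 7.5 nL into about 7.5 µL; 0% = neutral wells and 100% = wells with inactivated enzyme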
Target sequence (P55789 whole entry, looked up): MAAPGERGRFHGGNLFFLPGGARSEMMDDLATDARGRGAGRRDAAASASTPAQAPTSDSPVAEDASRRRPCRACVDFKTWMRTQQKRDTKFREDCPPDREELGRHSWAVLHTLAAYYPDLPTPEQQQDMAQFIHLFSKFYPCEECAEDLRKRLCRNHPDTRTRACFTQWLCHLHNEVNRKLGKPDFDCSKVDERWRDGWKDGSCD
Ecoli growth = E. coli growth inhibition; Escherichia coli growth, OD600, 23 h; stronger effect = lower value; OD600 absorbance (concentration not given with the values); actives 0.21% (n = 330,000);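 active = OD600 absorbance below the run mean of sample wells minus 3.6 SD, in any replicate, cut at about 0.56 in these data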;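 note: stock transfer was 300 nL into about 60 µL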
rRNA inh HTS OD600 = recorded beside rRNA inh HTS, whose call it bears; OD600 change, %; measured here: OD600 growth;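 optical density of the mix in the first replicate; 0 = DMSO median and -100 = no signal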
rRNA inh HTS RFP = also measured in rRNA inh HTS; calls as there; RFP signal change, %; measured here: RFP humanized mutant strains;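 first replicate; 0 = DMSO median and -100 = no signal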
Numbers without * were called inactive; & = joins results of further samples; ! = not confirmed by another sample. A portion of the library (hit frequency here may not be typical).

The first 3 compounds as a preview:
How did CCC(CC)NCc1ccc2c(c1)c1ccccc1n2CC do in these assays?
FGF22 binding: inactive; AF4-AF9 inh: 5.3; Vif A3G: inconclusive; HNF4A DNA FP: -2.1; rRNA inh HTS: -32; ALR H2O2 inh: -6; rRNA inh HTS OD600: -47; rRNA inh HTS RFP: -6.1

What do the screens show for `C[C@@H]1CCCCO[C@H](CN(C)C(=O)Nc2ccccc2)[C@@H](C)CN([C@H](C)CO)C(=O)c2cc(NC(=O)Cc3ccccc3)ccc2O1`?
FGF22 binding: inactive; AF4-AF9 inh: -3.6; rRNA inh HTS: -4; rRNA inh HTS OD600: -8; rRNA inh HTS RFP: -1.7

Results for COC(=O)C[C@@H]1C[C@H]2c3cc(NC(=O)Nc4ccccc4F)ccc3O[C@H]2[C@@H](CO)O1 ?
FGF22 binding: inactive; AF4-AF9 inh: 0.0&-3.3; rRNA inh HTS: 4&0; rRNA inh HTS OD600: 5&-3; rRNA inh HTS RFP: 6.1&1.1

Main list, repeating the preview:
How did CCC(CC)NCc1ccc2c(c1)c1ccccc1n2CC do in these assays?
FGF22 binding: inactive; AF4-AF9 inh: 5.3; Vif A3G: inconclusive; HNF4A DNA FP: -2.1; rRNA inh HTS: -32; ALR H2O2 inh: -6; rRNA inh HTS OD600: -47; rRNA inh HTS RFP: -6.1

What do the screens show for `C[C@@H]1CCCCO[C@H](CN(C)C(=O)Nc2ccccc2)[C@@H](C)CN([C@H](C)CO)C(=O)c2cc(NC(=O)Cc3ccccc3)ccc2O1`?
FGF22 binding: inactive; AF4-AF9 inh: -3.6; rRNA inh HTS: -4; rRNA inh HTS OD600: -8; rRNA inh HTS RFP: -1.7

Results for COC(=O)C[C@@H]1C[C@H]2c3cc(NC(=O)Nc4ccccc4F)ccc3O[C@H]2[C@@H](CO)O1 ?
FGF22 binding: inactive; AF4-AF9 inh: 0.0&-3.3; rRNA inh HTS: 4&0; rRNA inh HTS OD600: 5&-3; rRNA inh HTS RFP: 6.1&1.1

Results for Brc1ccc(CNCc2cccs2)cc1 ?
Vif A3G: 1%; HNF4A DNA FP: -2.0; ALR H2O2 inh: -2; Ecoli growth: 0.61

How did COc1ccccc1CNC(=O)c1cc2c(C)nn(Cc3ccc(F)cc3)c2s1 do in these assays?
Vif A3G: 6%&-8%; HNF4A DNA FP: 2.2; ALR H2O2 inh: -6; Ecoli growth: 0.77

What do the screens show for `CCN1CCN(C(=O)CN(CC)S(=O)(=O)c2ccc(F)cc2)CC1`?
FGF22 binding: inactive; AF4-AF9 inh: -1.7; HNF4A DNA FP: 1.4; rRNA inh HTS: 4; ALR H2O2 inh: -2; Ecoli growth: 0.7; rRNA inh HTS OD600: 12; rRNA inh HTS RFP: 3.2

What do the screens show for `CCCCN1CCc2c([nH]c3c(C)cccc23)C1=O`?
Vif A3G: 2%; HNF4A DNA FP: -1.0; ALR H2O2 inh: -2; Ecoli growth: 0.68

How did Cc1cccc(C)c1OCC(=O)N(Cc1ccco1)C1CCS(=O)(=O)C1 (centres undefined) do in these assays?
HNF4A DNA FP: 3.6; ALR H2O2 inh: -1; Ecoli growth: 0.65

What do the screens show for `COc1ccc(NC(=O)Nc2ccc3c(c2)C(=O)N([C@H](C)CO)C[C@@H](C)[C@@H](CN(C)Cc2ccc4c(c2)OCO4)OCCCC[C@H](C)O3)cc1`?
FGF22 binding: inactive; AF4-AF9 inh: 11&8.7; rRNA inh HTS: -34*!; rRNA inh HTS OD600: -19*!; rRNA inh HTS RFP: 4.4*!

Results for CCn1c(SCC(=O)Nc2ccc(C(=O)OC)cc2)nc2cccnc21 ?
Vif A3G: 32%; HNF4A DNA FP: 2.5; ALR H2O2 inh: -8; Ecoli growth: 0.73

How did Cc1cc2c(cc(C(=O)N3CCC(C(=O)NC4CCCC4)CC3)n2Cc2c(F)cccc2Cl)o1 do in these assays?
FGF22 binding: inactive; AF4-AF9 inh: -6.8; HNF4A DNA FP: 1.3; rRNA inh HTS: -2; Ecoli growth: 0.74; rRNA inh HTS OD600: 0; rRNA inh HTS RFP: -0.8

What do the screens show for `CCC(Oc1cccc(C)c1)C(=O)Nc1ccccc1C(=O)N1CCOCC1` (centres undefined)?
FGF22 binding: inactive; AF4-AF9 inh: -8.1; Vif A3G: 12%; HNF4A DNA FP: 0.4; rRNA inh HTS: 8; ALR H2O2 inh: 11; Ecoli growth: 0.7; rRNA inh HTS OD600: 7; rRNA inh HTS RFP: 0.3

Results for CN(C)c1ccc(/C=N/NC(=O)CNC(=O)c2ccncc2)cc1 ?
FGF22 binding: inactive; AF4-AF9 inh: -2.8; Vif A3G: -4%; HNF4A DNA FP: -0.6; rRNA inh HTS: 3; ALR H2O2 inh: 98*; rRNA inh HTS OD600: -12; rRNA inh HTS RFP: -2.3

How did C=CCCC1CN(Cc2ccco2)S(=O)(=O)c2c(F)cccc2O1 (centres undefined) do in these assays?
FGF22 binding: inactive; AF4-AF9 inh: 1.7; HNF4A DNA FP: 3.8; rRNA inh HTS: 3; rRNA inh HTS OD600: -25; rRNA inh HTS RFP: -0.8

How did C[C@@H]1CCCCO[C@@H](CN(C)C(=O)Nc2ccccc2)[C@@H](C)CN([C@H](C)CO)C(=O)c2cc(NC(=O)Nc3ccccc3)ccc2O1 do in these assays?
FGF22 binding: inactive; AF4-AF9 inh: -1.5; rRNA inh HTS: 2; rRNA inh HTS OD600: 1; rRNA inh HTS RFP: -1.0

How did COCC#Cc1ccc2c(c1)O[C@H](CN(C)C(C)=O)[C@@H](C)CN([C@H](C)CO)S2(=O)=O do in these assays?
FGF22 binding: inactive; AF4-AF9 inh: -1.7; rRNA inh HTS: 3; rRNA inh HTS OD600: 6; rRNA inh HTS RFP: -0.6

Results for Cn1c(CNC(=O)CNS(=O)(=O)c2ccccc2)cc(=O)n(C)c1=O ?
FGF22 binding: inactive; AF4-AF9 inh: -3.4; Vif A3G: 4%; HNF4A DNA FP: -1.3; rRNA inh HTS: -1; ALR H2O2 inh: 1; Ecoli growth: 0.68; rRNA inh HTS OD600: 4; rRNA inh HTS RFP: -2.6

What do the screens show for `COC(=O)CCCC(=O)NCC1(N(C)Cc2ccccc2)Cc2ccccc2C1`?
FGF22 binding: inactive; AF4-AF9 inh: -13; HNF4A DNA FP: 0.1; rRNA inh HTS: 9; ALR H2O2 inh: -6; Ecoli growth: 0.65; rRNA inh HTS OD600: 8; rRNA inh HTS RFP: 4.8

How did O=C(CCN1CCCCC1)NCC[C@@H]1CC[C@@H](NC(=O)C2CCCC2)[C@@H](CO)O1 do in these assays?
FGF22 binding: inactive; AF4-AF9 inh: -0.1; rRNA inh HTS: 3; rRNA inh HTS OD600: 5; rRNA inh HTS RFP: -0.6

Results for O=C(CSc1cccc(C(F)(F)F)c1)Nc1cc(S(=O)(=O)N2CCCC2)ccc1Cl ?
Vif A3G: -1%; HNF4A DNA FP: 1.4; ALR H2O2 inh: -36; Ecoli growth: 0.65

How did Cc1ccc(C(=O)CCC2CCCCC2=O)cc1 (centres undefined) do in these assays?
Vif A3G: -1%; HNF4A DNA FP: -5.5; rRNA inh HTS: -6; ALR H2O2 inh: -2; Ecoli growth: 0.69; rRNA inh HTS OD600: -5; rRNA inh HTS RFP: -2.0

How did Cc1cc(C)cc(NC(=O)c2ccc(CSc3nnnn3C)cc2)c1 do in these assays?
Vif A3G: -1%; HNF4A DNA FP: 3.5; rRNA inh HTS: -4; ALR H2O2 inh: 32; Ecoli growth: 0.65; rRNA inh HTS OD600: -15; rRNA inh HTS RFP: 3.4

How did O=C(NC1CCCCC1)N1CCCCCCC1 do in these assays?
Vif A3G: 5%; HNF4A DNA FP: 1.3; ALR H2O2 inh: 2; Ecoli growth: 0.69

What do the screens show for `COc1ccccc1OCCNC(=O)c1ccc(Br)cc1`?
FGF22 binding: inactive; AF4-AF9 inh: -7.1; Vif A3G: -5%; HNF4A DNA FP: 5.8; rRNA inh HTS: -10; ALR H2O2 inh: -1; Ecoli growth: 0.67; rRNA inh HTS OD600: -23; rRNA inh HTS RFP: -7.2

What do the screens show for `COc1cccc(NC(=O)Nc2nnc([C@H]3C[C@H](O)[C@@H](CO)O3)s2)c1`?
FGF22 binding: inactive; AF4-AF9 inh: -1.4; HNF4A DNA FP: -6.9; rRNA inh HTS: 1; rRNA inh HTS OD600: 9; rRNA inh HTS RFP: -3.8

How did CC1(c2nnc(-c3cccc(Cl)c3)o2)CC(c2c(Cl)cccc2Cl)=NO1 (centres undefined) do in these assays?
HNF4A DNA FP: -3.3; ALR H2O2 inh: 1; Ecoli growth: 0.7

What do the screens show for `CCOc1ccc(S(=O)(=O)N2CCC(C(=O)NC3CCCC3)CC2)cc1`?
FGF22 binding: inactive; AF4-AF9 inh: -0.4; HNF4A DNA FP: 2.5; rRNA inh HTS: 10; ALR H2O2 inh: -5; Ecoli growth: 0.71; rRNA inh HTS OD600: 19; rRNA inh HTS RFP: 2.3

What do the screens show for `COc1ccc(CN2C(=O)C(CC(=O)NC3CC3)CC(C(=O)N(C)C)=C2C)cc1` (centres undefined)?
FGF22 binding: inactive; AF4-AF9 inh: 1.4; Vif A3G: -6%; HNF4A DNA FP: 7.9; rRNA inh HTS: 8; rRNA inh HTS OD600: 11; rRNA inh HTS RFP: -0.7

What do the screens show for `CC(C)c1cn(CC[C@@H]2CC[C@H](NC(=O)C3CCCC3)[C@H](CO)O2)nn1`?
FGF22 binding: inactive; AF4-AF9 inh: -0.9; rRNA inh HTS: 1; rRNA inh HTS OD600: 4; rRNA inh HTS RFP: -1.3

How did CC(NC(=O)CCC(=O)c1ccc(F)cc1)C1CC2CCC1C2 (centres undefined) do in these assays?
AF4-AF9 inh: 0.0; HNF4A DNA FP: -5.4; ALR H2O2 inh: -8; Ecoli growth: 0.7

What do the screens show for `Cc1ccc(C(CC(N)=O)c2ccco2)cc1` (centres undefined)?
Vif A3G: 8%; HNF4A DNA FP: 1.6; ALR H2O2 inh: -7; Ecoli growth: 0.73

Results for C[C@@H]1CN([C@@H](C)CO)S(=O)(=O)c2ccc(C#CCC3CCCC3)cc2O[C@H]1CN(C)C(=O)CN(C)C ?
FGF22 binding: inactive; AF4-AF9 inh: 9.7; rRNA inh HTS: 7; rRNA inh HTS OD600: -5; rRNA inh HTS RFP: 21

Results for O=C(Nc1ccccc1)NC1(C(=O)N2CCC(O)CC2)CCCCC1 ?
FGF22 binding: inactive; AF4-AF9 inh: -8.8; HNF4A DNA FP: 0.2; rRNA inh HTS: 3; ALR H2O2 inh: -1; Ecoli growth: 0.61; rRNA inh HTS OD600: 8; rRNA inh HTS RFP: 1.4

Results for Cc1cnc(C(=O)N(CCCn2ccnc2)C2C(=O)Nc3ccccc3N=C2c2ccccc2)cn1 (centres undefined) ?
FGF22 binding: inactive; AF4-AF9 inh: 2.5; HNF4A DNA FP: 1.8; rRNA inh HTS: 8; rRNA inh HTS OD600: 11; rRNA inh HTS RFP: -1.3

What do the screens show for `Cc1ccc(S(=O)(=O)N2CCCCC2)cc1NC(=O)Cc1c[nH]c2ccccc12`?
FGF22 binding: inactive; AF4-AF9 inh: 2.2; Vif A3G: 13%; HNF4A DNA FP: 8.0; rRNA inh HTS: -1; ALR H2O2 inh: 0; Ecoli growth: 0.67; rRNA inh HTS OD600: -5; rRNA inh HTS RFP: 5.8

Results for Cc1nn(C)c(C)c1NC(=O)CSc1nc(-c2ccccc2F)nc2c1cnn2-c1ccccc1 ?
FGF22 binding: inactive; AF4-AF9 inh: 0.7; HNF4A DNA FP: 16; rRNA inh HTS: 14; Ecoli growth: 0.71; rRNA inh HTS OD600: 3; rRNA inh HTS RFP: 2.0
